Bioassay records (PubChem BioAssay)
VACV Venus inh: vaccinia inhibition (Venus reporter); Vaccinia virus Venus reporter expression, fluorescence; Potency, µM (top dose mostly 36.5 µM), without a hit: at the top dose activity change, negative = inhibition, usual class: inhibitors; 330,000 tested, 0.46% active; AID 720580; active means well fitted inhibition curve with a large enough effect; inconclusive means small, poorly fitted or top-dose-only effect; inactive means no such curve, though single readings can be large or run the other way; tested in A549 cells; also: nearly all actives have a fitted effect of over 30% in size; inactives centre near -10
Vaccinia mCherry: inhibitors of vaccinia virus infection (mCherry reporter signal) | Vaccinia virus mCherry reporter infection, fluorescence; about a quarter of the inactives have no number | Potency, µM (titrated, usually from 36.5 µM), for inactives: top-dose activity change, negative = inhibition, usual class: inhibitors | 310,000 tested, 0.63% active; active = well fitted inhibition curve with a large enough effect; inconclusive = small, poorly fitted or top-dose-only effect; inactive = no such curve, though single readings can be large or run the other way; tested in A549 cells; also: nearly all actives have a fitted effect of over 35% in size; inactives centre near -10
* hit, by the source's call; i = inactive; ? = inconclusive; / = not tested or not shown; & = joins results of further samples; [ ] = dose if it differs, or a comment. % is scaled to controls: 0 for no effect and ±100 for the full control effect; potency is read from the fitted curve at half-maximal effect.

SMILES	VACV Venus inh	Vaccinia mCherry
O=c1[nH]cc(NCCNc2ncc(C(F)(F)F)cc2Cl)c(=O)[nH]1	2%	i
COc1ccccc1CNS(=O)(=O)c1ccc(F)c(C(=O)Nc2cc(Cl)ccc2OC)c1	-16%	-4%
CCN(CC(=O)Nc1c(F)cccc1F)C(=O)c1cccc(S(=O)(=O)N2CCN(c3ccccc3)CC2)c1	-18%	-2%
Cc1cccc(C(=O)N[C@H](C(=O)Nc2ccc(S(=O)(=O)NC3=NCCCCC3)cc2)C(C)C)c1	-11%	-16%
CS(=O)(=O)N(Cc1nnc(-c2cccs2)o1)c1ccc(Cl)cc1F	-19%	-16%
Cc1cccnc1NC(=O)Nc1cccc2ccccc12	-16%	/
CC1(C)C(O)CC[C@]2(C)C1CC[C@@]1(C)C2C(=O)C=C2[C@@H]3C[C@@](C)(C(=O)O)CC[C@@]3(C)CCC21C (stereo not given in full)	-8%	i
Cc1ccc2c(c1)cc(C(=O)Nc1ccc(F)cc1F)n2C	-22%	-24%
COc1ccc(-c2cn3nc(N4CCCC(C(=O)Nc5cccc(Cl)c5C)C4)sc3n2)cc1 (stereo not given)	-20%	-21%
COC(=O)C1C2C=CC3(CN(c4cccc(Cl)c4)C(=O)C13)O2 (stereo not given)	3%	3%
Cc1ccc(C(CC(=O)Nc2ccc(C)cc2C)N2Cc3ccccc3C2=O)cc1 (stereo not given)	-11%	-14%
Cc1ccc(S(=O)(=O)NC(=O)NCCCCNC(=O)NS(=O)(=O)c2ccc(C)cc2)cc1	-10%	-5%

Record cards (already shown).
CS(=O)(=O)N(Cc1nnc(-c2cccs2)o1)c1ccc(Cl)cc1F in the list: VACV Venus inh: -19%; Vaccinia mCherry: -16%
O=c1[nH]cc(NCCNc2ncc(C(F)(F)F)cc2Cl)c(=O)[nH]1 in the list: VACV Venus inh: 2%; Vaccinia mCherry: i

Following part:
SMILES	VACV Venus inh	Vaccinia mCherry
O=C(CC(C(=O)O)c1ccc(Cl)cc1)c1ccc(Cl)c(Cl)c1 (stereo not given)	-13%	-37%
Cc1cccc(-c2noc(CCCC(=O)NC3CCCC3)n2)c1	-17%	-16%
Cc1cccc(N(CC(=O)NC2CCCCC2)C(=O)c2c(C)noc2C)c1	-9%	-12%
COc1ccc(OC(=O)c2nc(SCc3ccc(F)cc3)ncc2Cl)cc1	5%	11%
COc1cc2c(O)cc(C(=O)O)c(-c3cc(OC)c(OC)c(OC)c3)c2cc1OC	-4%	-12%
CC(C)(C)c1nnc2sc(SCC(=O)N3CCc4ccccc43)nn2c1=O	5%	-6%
CCc1nn(CCCC(=O)NC(C)c2ccccc2)c(=O)c2cc3occc3n12 (stereo not given)	-14%&-6%	-5%&-13%
CCOC(=O)c1c(-c2ccc(F)cc2)csc1NC(=O)c1c(-c2ccccc2)noc1C	16%	?
O=C(COC(=O)c1cncc(Br)c1)NCc1ccco1	-12%	-18%[1.46 µM]
CC1=C(CCN2CCN(C3CCCC3)C(CCO)C2)C(C)(C)CCC1 (stereo not given)	-19%	-27%
CCOc1cc(/C=C2\CCCc3c2nc2ccccc2c3C(=O)O)ccc1OC	14%	-1%
O=C1NC[C@@H](CCCCN2C[C@H](Cc3ccccc3)N(Cc3ccccc3)C(=O)C2=O)N(Cc2ccccc2)C1=O	2%	8%

Overlap with the part before: 3 compounds, followed by the next part.
SMILES	VACV Venus inh	Vaccinia mCherry
CC1=C(CCN2CCN(C3CCCC3)C(CCO)C2)C(C)(C)CCC1 (stereo not given)	-19%	-27%
CCOc1cc(/C=C2\CCCc3c2nc2ccccc2c3C(=O)O)ccc1OC	14%	-1%
O=C1NC[C@@H](CCCCN2C[C@H](Cc3ccccc3)N(Cc3ccccc3)C(=O)C2=O)N(Cc2ccccc2)C1=O	2%	8%
CC1CCC(NC(=O)Cn2cc3c(n2)CCCC3)CC1 (stereo not given)	-12%	-5%
Cc1ccccc1CSCC(=O)NCCSc1ccccn1	-5%	-11%
COc1ccc(NC(=O)/C(Cl)=C(/Cl)S(=O)(=O)Cc2ccc(C)cc2)cn1	14µM*	/
Cc1cc2c(ncn2C)c(NS(=O)(=O)c2ccc(F)cc2)c1C	-21%	-23%
COc1ccc(CCN2C(=O)NC(NC(=O)c3ccccc3OC)(C(F)(F)F)C2=O)cc1OC (stereo not given)	-3%	-11%
CCC(C)(C)n1nnnc1CN1CCC(n2c(C)nc3cc(C(F)(F)F)ccc32)CC1	-3%	/
CCc1ccc(C2NC(c3ccc(CC)cc3)C([N+](=O)[O-])C(C)(C)C2[N+](=O)[O-])cc1 (stereo not given)	-3%	-12%
Cc1noc(C)c1S(=O)(=O)N(C)C[C@H]1Oc2c(NC(=O)NC3CCCCC3)cccc2C(=O)N([C@H](C)CO)C[C@@H]1C	-23%	i
C=CCNC(=S)Nc1sc2c(c1C(N)=O)CCCC2	-3%[7.34 µM]	i[7.34 µM]
COC(=O)C1(C(=O)OC)C[C@H](c2ccc(OC)cc2)N(Cc2ccccc2OC)[C@@H]1c1ccccc1	-7%	i
O=C(Nc1ccccc1)N1CCN2C(=O)c3ccccc3C12c1ccccc1 (stereo not given)	-28%	?
CCOC(=O)N1CCC(NC(=O)CN(C)S(=O)(=O)c2cc3c(cc2Cl)NC(=O)CO3)CC1	-8%	i

Some of the entries so far, with each value named:
O=C1NC[C@@H](CCCCN2C[C@H](Cc3ccccc3)N(Cc3ccccc3)C(=O)C2=O)N(Cc2ccccc2)C1=O
  VACV Venus inh = 2%
  Vaccinia mCherry = 8%

CC1CCC(NC(=O)Cn2cc3c(n2)CCCC3)CC1 (stereo not given)
  VACV Venus inh = -12%
  Vaccinia mCherry = -5%

Cc1ccccc1CSCC(=O)NCCSc1ccccn1
  VACV Venus inh = -5%
  Vaccinia mCherry = -11%

COc1ccc(NC(=O)/C(Cl)=C(/Cl)S(=O)(=O)Cc2ccc(C)cc2)cn1
  VACV Venus inh = 14µM*
  Vaccinia mCherry = /

Following part.
SMILES	VACV Venus inh	Vaccinia mCherry
CCC(C)C(NC(=O)OC(C)(C)C)C(=O)NC(CC(C)C)C(N)=O (stereo not given)	-2%	/
COc1cccc(C(=O)C2CCCN(Cc3cccn3-c3ccccn3)C2)c1 (stereo not given)	-19%	-3%
Cc1cccc([C@H]2[C@@H]3C=CC[C@@H](C)[C@@H]3C(=O)N2Cc2ccccc2)c1	-10%	i
O=C(NCc1csc(-c2ccccc2)n1)c1cc(F)cc2c1OCOC2	-9%	-5%
COc1ccc2cc(-c3cc(C(=O)O)c4ccccc4n3)ccc2c1	4%	10µM*
O=C(c1ccc(N2C(=O)C3CC=C(Cl)CC3C2=O)cc1)N1CCOCC1 (stereo not given)	0%	15%
Cc1cc(C)c(S(=O)(=O)N2CCN(c3ccc([N+](=O)[O-])c(NCC4CCCO4)c3)CC2)c(C)c1 (stereo not given)	-4%	-12%
COc1ccc(NS(=O)(=O)c2ccc(Br)s2)cc1OC	-17%	-27%
O=[N+]([O-])c1ccc(N2CCN(Cc3cccc([N+](=O)[O-])c3)CC2)cc1	-15%	?
C/C(=N\N1CCCCC1)c1ccccc1O	-5%	i
Cc1ccc(-c2nc(N3CCOCC3)s[n+]2-c2ccccc2)cc1	-9%	-25%
COc1cccc(CNC(=O)Cn2ccc3cc(S(=O)(=O)N4CCCC4)ccc32)c1OC	-5%	-3%
Cc1ccc(S(=O)(=O)N2CCC(C(=O)N[C@@H](C)C(=O)NCc3ccco3)CC2)cc1	-9%	-3%
COc1ccc(C2CC(C(F)(F)F)n3nc(C(=O)NCCCn4ccnc4)cc3N2)cc1OC (stereo not given)	-20%	/
CCC/C=N/Nc1nnc(Cc2ccc(OC)c(OC)c2)c(=O)[nH]1	-16%	-16%
C[C@H]1CN([C@@H](C)CO)C(=O)CCCn2cc(nn2)CO[C@@H]1CN(C)S(=O)(=O)c1ccc(Oc2ccccc2)cc1	-17%	-6%
c1ccc(CSc2ccc(-c3cccs3)nn2)nc1	-6%	-14%
CC(C)(C)NC(=O)C(c1ccncc1)n1c(=O)c(-c2ccccc2)nc2ccccc21 (stereo not given)	-7%	-5%
CN(C)S(=O)(=O)c1cccc(NC(=O)c2ccc(N3CCOCC3)c([N+](=O)[O-])c2)c1	-28%	?
CC(OC(=O)c1cccc(S(=O)(=O)N2CCCCCC2)c1)C(=O)Nc1ccc(S(N)(=O)=O)cc1 (stereo not given)	-17%	i
CCCNC(=O)N1C[C@H](O)COC[C@@H]2O[C@@H](CC(=O)NCCCN3CCOCC3)CC[C@H]21	-7%	-12%
COCCN(Cc1cc2cc3c(cc2nc1Cl)OCO3)C(=O)Nc1ccc(OC)cc1	-19%	-7%
O=C(Cn1c(=O)c2cccn2c2ccccc21)NCCc1ccc(Cl)cc1	-18%	i
COC(=O)/C=C/C1=CN(Cc2ccccc2)CCC1=O	-13%	-11%
CC1(C(=O)NS(=O)(=O)c2cccc(F)c2)CCN1C(=O)Cc1ccc(Cl)cc1Cl (stereo not given)	5%	2%
CC(=O)OCCN(CCCn1c(-c2ccncc2)nc2ccccc21)c1nc(CN2CCCCC2)cs1	8%	2%
O=C1C=C(c2ccc(F)cc2OCc2ccccc2)C[C@@H](c2ccc(F)cc2)C1	?	?
CN1CCN(C(=O)C2=C[C@@H](c3csc4ccccc34)C[C@@H](OCc3ccc(CO)cc3)O2)CC1	-12%	-10%
Cc1cc(OCC(=O)NCC(C)C)cc(C)c1Br	-17%	-23%
COc1ccc(/C=N/n2cnnc2)cc1Oc1nc(Cl)ncc1F	0%	0%
O=C(NC1CCCCC1)c1ccc2c(c1)N(Cc1ccccc1Cl)C(=O)c1ccccc1S2	1%	1%
Cc1cccc(N2CCN(c3nc4ccc(Cl)cc4n4cnnc34)CC2)c1C	?	i
COc1cc(C(CCN2CCCC2)c2c(OC)cc(OC)c3ccc(=O)oc23)cc(OC)c1OC (stereo not given)	-11%	26%
O=C1CC(=O)N(c2cccc(F)c2)N1	-6%	i
COc1ccc(C(c2ccc(OC)cc2)C(Cl)(Cl)Cl)cc1	-11%&10%	i
O=C(Oc1cccnc1)c1cc(S(=O)(=O)N2CCOCC2)ccc1Cl	-11%	-4%
COc1ccc(C(=O)Sc2nncc3ccccc23)cc1	-21%	-6%
CCOC(=O)Cc1csc(SCc2cc(=O)oc3cc(O)ccc23)n1	-15%	-23%
O=C(OCC(=O)N1CCN(S(=O)(=O)c2ccc(Cl)cc2)CC1)C1CCC1	-14%	i
O=C1CCCN1CN1CCCCC1	-6%	/
O=C(c1cccs1)N1C[C@H](n2cc(C3CC3)nn2)[C@@H](O)C[C@@H]1c1ccc(Cl)cc1	-8%	-7%
O=C(CSc1cn(CCNC(=O)c2ccccc2F)c2ccccc12)Nc1ccc2c(c1)OCCO2	-4%	-15%
COC(=O)c1ccc(NC(=O)c2ccc3c(c2)C(=O)N(C)C3=O)cc1	-8%	i
O=C(NC1CCCC1)C(c1ccc(F)cc1)N(C(=O)c1csnn1)C1CC1 (stereo not given)	-14%	i
COc1ccc(S(=O)(=O)N2CC(C)N(C(=O)N(C)C)C2C)cc1 (stereo not given)	-1%	10%
COC(=O)c1ccccc1NC(=O)CN(Cc1ccccc1)S(C)(=O)=O	-7%	-4%
Nc1nnc(-c2cccc(Cl)c2Cl)c(N)n1	-12%	-11%
Cc1ccc(OCC(=O)N/N=C\c2ccc(C)o2)c(C)c1	-12%	-18%
COc1ccc(Br)cc1C(=O)N/N=C/c1ccc2c(c1)n(C)c(=O)n2C	-9%	i
COCCN1Cc2cccc(C(=O)Nc3ccc(-c4nc5ccccc5[nH]4)cc3)c2C1=O	-26%	-12%
COc1ccc(C(=O)c2cn(Cc3ccccc3F)c3ccc(F)cc3c2=O)cc1	-17%	-14%
CCOC(=O)c1cnc(SCc2ccc(C)cc2)nc1N	1%	-7%
Cc1nn(C)c2nc(-c3cccs3)cc(C(F)(F)F)c12	-9%	-2%
CC(C(N)=O)N1CC(c2ccc(Cl)cc2)CC1=O (stereo not given)	-17%	/
Cc1ncsc1CCC(=O)N1CCCC(Nc2ccc(F)c(F)c2)C1 (stereo not given)	-5%	i
CC(C)(C)n1nc2c(c1NC(=O)Cc1ccccc1)CS(=O)(=O)C2	-20%	-5%
Cc1cccc(NC(=O)c2ccc(S(=O)(=O)N3CCC(C)CC3)cc2)n1	?	?
CCCCCCN1C[C@H](n2cc(-c3ccc(F)cc3)nn2)[C@@H](O)C[C@@H]1c1ccccc1	-5%	-21%
O=C(CSc1ncccc1-c1nc2ccccc2[nH]1)Nc1ccc2c(c1)OCCO2	-21%	i
Cc1cccc(C2Nc3cccc4cccc(c34)N2)c1	-15%	-17%

The list goes on.
SMILES	VACV Venus inh	Vaccinia mCherry
COc1ccc(NC(=O)CSc2nc(O)cc(=O)n2-c2ccccc2)cc1	-11%	-25%
COc1ccc(-c2csc(C(O)c3ccc(F)c(F)c3)n2)cn1 (stereo not given)	-9%	?
CCCC[N+](CC#Cc1ccccc1)(CCCC)CCCS(=O)(=O)[O-]	-19%	-16%
Cc1ccc(CNC(=O)C2CCN(C(=O)c3cnn(-c4ccccc4)c3-n3cccc3)CC2)cc1	?	i
CCc1c(C2(O)CCCCC2)[nH]c2ccc(C#N)cc12	?	-17%
CCCC[C@@H]1CNCCN1CC1(c2ccccc2)CC1	-13%	-13%
COc1ccc(NC(=O)CCN2C(=O)[C@@H]3[C@H](C2=O)[C@H]2C=C[C@@H]3C2)cc1	-6%	-10%
c1ccc(CCCc2nc(-c3cccnc3)no2)cc1	-7%	i
COc1ccc(Cn2c(CNS(=O)(=O)c3ccc(Cl)s3)nc3cccnc32)cc1	-10%	-13%
Cc1cccc(N2CCN(C(=O)c3ccoc3C)CC2)c1C	-22%	-7%
Fc1ccc(-n2nnc(-c3ccnc4ccccc34)n2)cc1	?	-20%
CN1CCN(/N=C/c2ccc(Br)cc2)CC1	-4%	-28%
